AID504770 – growth inhibitors of E. coli YBA685 in a screen for V. cholerae RctB (chromosome II replication) inhibitors; E. coli YBA685 rctB-dependent plasmid, OD600 growth, 3 h; active compounds read low; z-score (test concentration not listed); 130,000 compounds, 0.27% hits;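 active means z-score under -2 on both plates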;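 further: wells of about 30 µL received 100 nL stock; score is relative to mean and SD of the test wells; the first replicate is given; strong numbers were not always called active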
CapD inh – blocks the Bacillus anthracis CapD enzyme; purified CapD enzyme, fluorescence intensity read-out; active compounds read low; some hits fall short of the stated cut; z-score (test concentration not listed); 140,000 compounds, 0.23% hits;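 active means z-score under -4 in either of two replicates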;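 further: stock transfer was 100 nL into about 40 µL; score is relative to mean and spread of the plate; one replicate is shown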
An asterisk follows results filed as active; nt = not tested or not shown.

SMILES,CapD inh,AID504770
O=C(CCC(=O)c1ccc[nH]1)c1ccc(Cl)cc1,nt,0.4
COCCNC(=O)C1CCN(c2nnc(-n3cccc3)s2)CC1,0.19,-0.4
O=C(CN(C(=O)c1ccccc1)C1CCCCC1)Nc1nc(-c2ccccc2)cs1,0.065,-0.4
Cc1cc2cc(CNC(=O)c3ccco3)ccc2[nH]1,-0.415,-0.65
O=c1c(Cl)c(Nc2ccc(F)cc2)cnn1-c1ccccc1,nt,-0.4
Cc1cccc(S(=O)Cc2ccc(C(=O)NCc3ccccc3)o2)c1 (stereo unspecified),0.02,-0.6
CNC(=O)c1c(N)sc2c1CCCCC2,0.365,-0.95
Cc1ccccc1-c1nsc(SCC(=O)NC2CCCCC2)n1,-0.15,-0.55
COc1ccc(-c2cc(C(F)(F)F)n3nc(C(=O)N4CCC(C)CC4)cc3n2)cc1OC,0.08,nt
CC1=C(C(=O)N(C)C)C(c2ccc(Cl)cc2)NC(=O)N1 (stereo unspecified),-0.18,0.7
Clc1ccc(/C=C/C2=Nc3cccc4cccc(c34)N2)cc1,-0.14,0
Cc1cc(C)cc(C(=O)NCC(=O)OCc2c(C)noc2C)c1,nt,-0.25
CC1CCN(C(=O)COC(=O)Cn2[nH]c(=O)c3ccccc3c2=O)CC1,nt,-1
N=Cc1c2ccc[nH]c-2c2ccccc12,0.135,nt
COC(=O)CC1(O)C(=O)C=C(c2ccc(C)cc2)N1c1ccccc1OC (stereo unspecified),-1.35,-0.2
COc1ccc(C(=O)NCCc2nc3ccccc3n2C)cc1OC,-0.46,-0.55
O=C(ON=C1CCN(S(=O)(=O)c2ccccc2)CC1)c1cccc(Cl)c1,0.145,nt
CCOC(=O)c1sc(N)c(C#N)c1CSc1nnc(C2CC2)n1N,nt,1.65
CCc1nnsc1C(=O)Nc1ccc(S(N)(=O)=O)cc1,nt,-0.5
CCOc1ccc2cc(-c3nnc(-c4cccc(OC)c4)o3)c(=O)oc2c1,0.56,nt
CCNC(=S)N1CCN(CCN=CC2=C(O)CC(C)(C)CC2=O)CC1,nt,-0.15
COc1ccc2c(c1)CCC1C2CCC2(C)C(=O)CCC12 (stereo unspecified),0.04,-0.15
Cc1cc(OCC(O)CN2CCN(Cc3ccc4c(c3)OCO4)CC2)cc(C)c1Cl (stereo unspecified),-0.79,-0.25
N#Cc1ccc(OCC(O)CN2CCN(c3ccccc3F)CC2)cc1 (stereo unspecified),0.105,nt
CCOC(=O)Cn1c(-c2ccccn2)nc2ccccc21,nt,0.8
OCc1ccccc1N=Cc1cccnc1,0.925,-0.75
O=C(c1cc(-c2ccccc2)on1)N1CCN(c2ccccc2)CC1,0.245,-0.95
O=C(Nc1ccccc1)NC1(C(=O)N2CCN(C(=O)c3ccco3)CC2)CCCCC1,nt,-0.6
CCN(CC)S(=O)(=O)N1CCCC(C(=O)NCc2ccc(C)cc2)C1 (stereo unspecified),-0.045,-0.05
Cc1ccc(C(=O)OCC2COc3ccccc3O2)cc1 (stereo unspecified),-0.695,-0.85
N#Cc1ccc(S(=O)(=O)Nc2ccccc2Sc2nc3ccc(Cl)cc3s2)cc1,0.27,1
CC1CN(c2ccc(N)cc2C(=O)O)CC(C)O1 (stereo unspecified),0.465,-1
O=C(OCC1CC(c2ccccn2)=NO1)c1ccc(Br)cc1 (stereo unspecified),nt,2.3
COc1ccc(-c2nc(SCC(=O)c3ccc(Cl)cc3)n[nH]2)cc1,-0.48,1
COc1cc(-c2nc3c(cnn3-c3ccccc3)c(=O)[nH]2)cc(OC)c1OC,0.24,-0.1
O=C(CSc1nnc(Cc2cc(=O)[nH]c(=O)[nH]2)n1-c1ccccc1)Nc1ccc2c(c1)OCO2,0.29,-1.2
CC1CCCCN1CCCNC(=O)Cc1ccc(NC2=NC3CS(=O)(=O)CC3S2)cc1 (stereo unspecified),-0.215,-0.35
COc1cscc1C(=O)N/N=C/c1c[nH]c2cc(OCc3ccccc3)ccc12,6.54,nt
CNc1c(=O)[nH]c(O)c2ccccc12,nt,1.05
CC1(C)CC(NC(=S)NC(=O)c2ccco2)CC(C)(C)N1,nt,0.2
CCC(C)(C)NC(=O)/C=C/c1ccc(OC(F)F)c(OC)c1,nt,0.7
Cc1ccc(Nc2nc3nonc3n3cnnc23)cc1Cl,nt,0.2
CCOC(=O)c1c(C#N)c(SC)nc2c1CCCC2,3.33,-0.45
Cc1ccc(CNC(=O)CCC(=O)O)cc1,-0.34,-0.5
COC(=O)c1ccc(C(=O)Nc2cc(C)on2)cc1,-0.78,-0.65
CC(Cc1c[nH]c2ccccc12)NC=O (stereo unspecified),nt,2.25
O=c1c(Cl)c(Cl)cnn1-c1nc2ccccc2o1,-0.575,-0.35
CC(=NCc1ccncc1)C1=C(O)c2ccccc2C1=O,-0.575,0.5
O=C1N=c2ccccc2=C1c1c(O)n(-c2cccc(Br)c2)[nH]c1=O,0.08,-0.05
O=C(Cc1c[nH]c2ccccc12)N/N=C/c1cc([N+](=O)[O-])ccc1Cl,-0.525,nt
NS(=O)(=O)c1cc2c(c([N+](=O)[O-])c1)-c1c(cc(S(N)(=O)=O)cc1[N+](=O)[O-])C2=O,-0.16,nt
CC(C)CC(O)(CC(C)C)C(=O)NNc1ccccc1,nt,-0.45
CC(C)N(CCC#N)C(=O)Nc1ccc(C(C)(C)C)cc1,-1.46,-0.25
Cc1occc1C(=O)C(C#N)=C1SCCCS1,-1.7,-0.55
Cc1ccc(N2C(=O)C(C)N=C2N(C)C2CCCCC2)cc1 (stereo unspecified),2.21,-0.35
O/N=C/c1ccc(-c2cc(C(F)(F)F)cc(C(F)(F)F)c2)o1,30.9,1.95
Cc1ccc2c(c1)N(CCC(=O)N1CCC3(CC1)OCCO3)C(=O)C(C)O2 (stereo unspecified),-0.64,-0.35
CCOC(=O)C1=C(NC(C)C)C(=O)N(N(C)C)C1,-3.12,-0.65
CC1Cc2ccccc2N1C(=O)NC1CC(=O)N(c2ccccc2)C1 (stereo unspecified),nt,-1.3
Nc1ccc(N2CCNCC2)cc1,0.38,0.5

Continued.
SMILES,CapD inh,AID504770
Cc1ccc(/C=C/C(=O)N(C2=NC(C)CS2)c2ccc(Cl)cc2)o1 (stereo unspecified),nt,-0.3
CS/C(N)=N/N=C(\C)c1ccc(Br)cc1,-0.69,0.95
CN(C)N=Nc1ccc(-c2cn(Cc3ccccc3)cn2)cc1,nt,-0.8
COc1ccc(-c2noc(CSc3nnc(CCc4ccccc4)n3C)n2)cc1OC,0.945,-0.8
Cc1ccc(CNC(=O)CN2NS(=O)(=O)c3ccccc3C2=O)cc1,nt,-0.1
CC(C)Cn1c(-c2ccc(F)cc2)n[nH]c1=S,1.07,0.3
Fc1cccc(Cl)c1/C=N/Nc1nc2ccccc2nc1C(F)(F)F,-0.4,nt
CSCCC(=O)Nc1ccc(-c2ccccc2)cc1,nt,0.2
COc1ccc(N2CCN(C(=O)c3cccc4ccccc34)CC2)cc1,nt,-0.7
CCS(=O)(=O)Nc1cc(F)ccc1C,-0.455,-0.9
O=C(NCc1cccnc1)c1cc2ccccc2oc1=O,37,0.25
O=C(Cn1c(=O)c2sccc2n(CC(=O)Nc2ccccc2)c1=O)NCc1ccco1,-0.035,-0.35
CCOC(=O)c1c(NC(=O)c2cc(S(N)(=O)=O)c(Cl)cc2Cl)sc2c1CCC(CC)C2 (stereo unspecified),0.225,nt
Cc1onc(-c2c(Cl)cccc2Cl)c1C(=O)Nc1ccc([N+](=O)[O-])cc1Cl,0.535,nt
O=C(CCSc1ccc2ccccc2n1)NCCc1ccccc1,-1.5,2.4
O=S1(=O)CCC(N2CCN(c3ncnc4sccc34)CC2)C1 (stereo unspecified),nt,0.45
COc1ccc(Cl)cc1N(C)S(=O)(=O)c1ccc2[nH]cc(C(=O)NCCCN3CCOCC3)c(=O)c2c1,7.44,nt
O=C1NCC2=C1C(c1ccccc1O)Nc1ccccc1N2 (stereo unspecified),-0.385,-0.6
CC(=O)Nc1ccc(C)cc1N=Cc1ccc2c(c1)OCO2,1.3,-0.5
O=[N+]([O-])c1cc(C(F)(F)F)cc2c1nc1ccccn12,0.63,nt

Part of the list above in order of formula weight, lowest first:
SMILES,CapD inh,AID504770
O=C(NCc1cccnc1)c1cc2ccccc2oc1=O,37,0.25
CS/C(N)=N/N=C(\C)c1ccc(Br)cc1,-0.69,0.95
CN(C)N=Nc1ccc(-c2cn(Cc3ccccc3)cn2)cc1,nt,-0.8
Cc1ccc(CNC(=O)CN2NS(=O)(=O)c3ccccc3C2=O)cc1,nt,-0.1
Fc1cccc(Cl)c1/C=N/Nc1nc2ccccc2nc1C(F)(F)F,-0.4,nt
CCOC(=O)c1c(NC(=O)c2cc(S(N)(=O)=O)c(Cl)cc2Cl)sc2c1CCC(CC)C2 (stereo unspecified),0.225,nt

Other structures follow:
SMILES,CapD inh,AID504770
CCCC(=O)O[C@]1(C(=O)CO)CCC2[C@@H]3CCC4=CC(=O)CC[C@]4(C)C3[C@@H](O)C[C@@]21C (stereo partly specified),7.12,0.95
O=C(CN1C(=O)C2C3C=CC(C3)C2C1=O)Nc1ccc2ccccc2c1 (stereo unspecified),0.335,nt
COc1ccccc1C(=O)N(CC(=O)Nc1ccccc1C(F)(F)F)Cc1ccco1,nt,0.4
CC1(C)CC(=O)c2c(oc3ccc(NS(=O)(=O)c4ccc(C(C)(C)C)cc4)cc23)C1,0.31,nt
O=C(CN1C(=O)C2CC=CCC2C1=O)N1CCN(S(=O)(=O)c2ccc3c(c2)OCCCO3)CC1 (stereo unspecified),nt,-0.5
COc1cccc(/C(O)=C2\C(=O)C(=O)N(CCN(C)C)C2c2ccc(C(C)C)cc2)c1 (stereo unspecified),-0.115,-0.25
CCCCOc1ccc(-c2nc(C=Nc3cc([N+](=O)[O-])ccc3Cl)c(O)o2)cc1,-0.81,nt
O=C(CN1CCCc2ccccc21)NCCc1ccc(F)cc1,nt,-0.65
O=C1c2ccccc2C(=O)N1Nc1ccccc1,0.46,nt
C(=N\Nc1ccc(N2CCOCC2)nn1)/C1=C(N2CCOCC2)C(=C/c2ccccc2)/CC1,nt,0.4
CCNC(=O)c1ccc2nc(N3CCCCC3)sc2c1,0.325,-0.2
CCc1ccc(NC(=O)c2ccc(NC(=O)CCS(=O)(=O)c3cccs3)cc2)cc1,0.65,-3.45
CCCCNC(=O)NCCNc1ccc(C(F)(F)F)cn1,2.17,nt
CN1C(=O)C(=Cc2ccco2)C(=O)N(C)C1=O,nt,-0.8
O=C(OCc1sccc1Oc1ccccc1)c1ccc(Cl)cc1,0.845,-0.6
O=c1[nH]c2ccccc2c(=O)n1NC(=S)NCc1ccco1,nt,-0.15
O=C(NN1C(=O)/C(=C/c2ccc(Br)cc2)SC1=S)c1ccccc1[N+](=O)[O-],0.195,nt
COC(=O)C1=C(C)NC(=O)CC1c1ccc(Cl)cc1Cl (stereo unspecified),-0.245,nt
O=S(=O)(NCCc1ccccn1)c1cc(Cl)ccc1Cl,0.31,nt
COc1cc(/C=N/NC(N)=O)ccc1OC(=O)c1cccs1,nt,-0.35
CCc1ccc(NC(=O)N(Cc2ccco2)C(C)c2cccs2)cc1 (stereo unspecified),0.25,-0.3
COc1cc(C(=O)Nc2sccc2C#N)cc(OC)c1OC,-0.83,0.4
O=C1c2ccccc2NC(c2cccc(O)c2)N1O (stereo unspecified),-0.88,-0.55
Cc1ccc(-c2nc(C#N)c(NCc3ccco3)o2)cc1,20.5,0.35
CCCCN=C1NN=C(c2cc3ccccc3o2)CS1,nt,-0.2
Clc1ccc2oc(-c3ccccc3)cc(=NCC3CCCO3)c2c1 (stereo unspecified),0.69,0.1
COc1ccc(OC)c(-n2c(=S)[nH]c3cc(C(=O)NCc4cccc(Cl)c4)ccc3c2=O)c1,-0.81,nt
CS(=O)(=O)c1ccccc1C(=O)Nc1cc(Cl)ccc1-n1cncn1,nt,1.2
c1cn2cc(CSC3CCCCC3)nc2s1,0.58,0.1
N#CC1(C#N)[C@@H]2c3ccccc3C=CN2[C@@H](C(N)=O)[C@@H]1c1ccc(Cl)c(Cl)c1,5.54,nt
Cc1n[nH]c(=S)n1Cc1ccccc1,nt,0.45
O=C(O)CCc1ccc(OCc2ccccc2)cc1,0.01,1.15
N#CCCN(C(=S)Nc1ccc(Cl)c(Cl)c1)C1CCCCC1,-0.095,nt
CCOC(=O)c1c(NC(=O)c2ccccc2Br)sc2c1CCN(C(=O)OCC)C2,-0.205,nt
Nc1c(C(=O)Nc2ccccc2)sc2nc3c(c(-c4ccco4)c12)CCCCC3,0.34,nt
COc1ccc(OC)c(C2CC(c3ccc(C)cc3)=NN2C(=O)CCC(=O)O)c1 (stereo unspecified),-0.17,nt
O=c1cc(CSc2nnc(-c3cccnc3)o2)c2cc3c(cc2o1)CCC3,nt,0.35
C/C(=C/c1ccccc1)C(=O)Nc1ccc(S(N)(=O)=O)cc1,0.285,-0.45
COc1ccc(/C(O)=C2\C(=N)N(c3cc([N+](=O)[O-])ccc3C)C3=C(C(=O)CCC3)C2c2cc(OC)c(OC)c(OC)c2)cc1 (stereo unspecified),-0.645,nt
COC(=O)c1cc2occc2n1CC(=O)Nc1ccc(F)cc1F,0.445,1.95

Screening data as filed in PubChem BioAssay.
